# Compound activity: PubChem BioAssay, Vanderbilt University
# GIRK2 act: activators of human GIRK2 potassium channels. HEK293-GIRK2 thallium flux, Thallos fluorescence. calls only for hits at 25 µM. hit rate 0.05% among 63,000;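 active = among the strongest 0.2% of first-round signals and kept after retests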;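 also: first round at about 10 µM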
# Target sequence (P48051 whole entry, looked up): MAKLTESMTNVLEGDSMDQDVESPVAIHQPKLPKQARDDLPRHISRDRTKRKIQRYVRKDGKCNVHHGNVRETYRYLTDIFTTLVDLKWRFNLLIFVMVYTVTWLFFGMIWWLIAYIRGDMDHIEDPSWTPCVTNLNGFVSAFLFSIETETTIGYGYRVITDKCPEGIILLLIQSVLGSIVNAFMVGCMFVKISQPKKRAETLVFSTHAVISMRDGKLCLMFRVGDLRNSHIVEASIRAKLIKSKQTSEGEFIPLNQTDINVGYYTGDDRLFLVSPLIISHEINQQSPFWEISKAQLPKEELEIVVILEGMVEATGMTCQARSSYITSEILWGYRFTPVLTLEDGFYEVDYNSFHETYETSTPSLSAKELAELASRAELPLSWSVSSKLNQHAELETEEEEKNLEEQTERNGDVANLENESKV
# Calls only; i = inactive.
SMILES,GIRK2 act
COc1ccccc1Nc1nn2c(=O)c3ccc(C(=O)NCc4cccs4)cc3nc2s1,i
CCC(=O)Oc1cc2oc(CC)c(-c3nc(C)cs3)c(=O)c2cc1CC,i
CC(C)OCCCNC(=O)C1(c2ccc(F)cc2)CC1,i
CCCCc1ccc(NC(=O)CN2C(=O)CSCC2=O)cc1,i
O=C(CSc1nnc(-c2ccncc2)o1)Nc1ccc([N+](=O)[O-])cc1,i
O=C(NCC#CCOc1cccc(C(F)(F)F)c1)c1cc(C2CC2)on1,i
CC(C)Sc1ccc(CC(=O)N2CCC(Cn3ccnc3)CC2)cc1,i
COc1ccc(N2CCN(C(CNS(=O)(=O)c3c(C)cc(C)cc3C)c3cccnc3)CC2)cc1 (centres undefined),i
COc1ncccc1C(=O)N1CC(c2nc(-c3cccc(Cl)c3)no2)C1,i
CCOc1ccc(NC(=O)CCCOc2ccc(C(C)(C)C)cc2)cc1,i
C[C@@H]1O[C@@H](O[C@H]2[C@H](O[C@H]3[C@H](O[C@H]4[C@H](O)[C@@H](C(=O)O)O[C@@H](O[C@H]5CC[C@@]6(C)C(CC[C@]7(C)C6CCC68OC[C@@]9(CCC(C)(C)C[C@@H]69)[C@H](O)C[C@]87C)C5(C)C)[C@@H]4O[C@@H]4O[C@H](CO)[C@@H](O)[C@H](O)[C@H]4O)O[C@H](CO)[C@H](O)[C@@H]3O)O[C@@H](C)[C@H](O)[C@H]2O)[C@H](O)[C@H](O)[C@H]1O (some centres undefined),i
Nc1nc(N2CCN(C3CCCCC3)CC2)ncc1C(=O)NCc1ccccc1,i
O=C(NCCC(O)c1ccoc1)C(=O)NCC(F)(F)F (centres undefined),i
CCCCN1CCN(Cc2nc(-c3ccc(N4CCOCC4)nc3)no2)CC1,i
CC(=O)Nc1ccc(S(=O)(=O)NCCc2ccc(N(C)C)cc2)cc1,i
O=C(CN1CCC(c2nc(-c3cccs3)no2)CC1)Nc1ccccc1Br,i
COc1cc(NC(=O)NC2(C(F)(F)F)Oc3ccccc3O2)ncn1,i
COc1ccc(NC(=O)CSc2nc3nc(C)ncc3c(=O)n2C)cc1Cl,i
CCOC(=O)c1ccc(NC(=O)Cn2c(C)cc(C)c(-c3nc(-c4ccc(F)cc4)no3)c2=O)cc1,i
CCc1ccccc1Sc1nccn2c(=O)n(CC(=O)Nc3cc(Cl)c(OC)cc3OC)nc12,i
O=C(Oc1ccc2c(=O)c(-c3ccc(Cl)cc3)coc2c1)C1CC1,i
Cc1ccc(-n2ncc3c(C)nnc(SCC(=O)NCC4CCCO4)c32)cc1C (centres undefined),i
COC(=O)c1ccc(Cn2cc(-c3nc(C)no3)ccc2=O)o1,i
Cc1cc(C)c(S(=O)(=O)Nc2ccc3c(c2)N(S(=O)(=O)c2ccccc2)CCC3)cc1C,i
COC(=O)c1cn(CCC(C)C)nc1S(=O)(=O)N1CCCCC1,i
CCOC(=O)Cn1c(=O)c2c(nc3n(-c4ccc(C(F)(F)F)cc4)c(C)c(C)n23)n(C)c1=O,i
COc1ccccc1OCCn1c(CO)nc2ccccc21,i
Cn1c(=O)c2c(nc3n2CCN3c2cccc(O)c2)n(C)c1=O,i
COc1ccc(S(=O)(=O)c2c(C)cc(C)n(CC(=O)NCc3ccc(C)cc3)c2=O)cc1OC,i
COc1ccccc1-c1nc(=S)c2c([nH]1)Oc1c(cc(Br)cc1OC)C2,i
O=C(/C=C/c1cccs1)NCCc1nc2c(c(C(F)(F)F)n1)CCCC2,i
CCCN(Cc1ccsc1)C(=O)c1cc(=O)c2ccccc2o1,i
Cc1ccc(-c2cc3c(=O)n(CC(=O)Nc4ccccc4C(F)(F)F)ncn3n2)cc1C,i
COc1ccc(CNc2nccc(-n3nc(C)cc3C)n2)cc1OC,i
COc1ccc(-n2nnc(-c3nc4ccccc4s3)c2N)cc1,i
COc1ccc(Br)c(C(=O)NCC(O)c2cccn2C)c1 (centres undefined),i
O=C(CSc1nc(-c2ccccc2)[nH]c1S(=O)(=O)c1ccccc1)NC1CC1,i
Cc1c(C)n2c3c(=O)n(CCC(C)C)c(=O)n(C)c3nc2n1-c1ccccc1N,i
COc1ccc(-c2noc(-c3ccc4c(=O)n(CCc5ccccc5)c(=O)[nH]c4c3)n2)cc1OC,i
Cc1ccc(-n2c(=O)c3oc4ccccc4c3n(CC(=O)N3CCC(C)CC3)c2=O)cc1,i
O=C(CCc1csc(NC(=O)c2ccc(F)cc2)n1)NCc1ccncc1,i
COc1ccc(S(=O)(=O)NCCN2CCN(S(=O)(=O)c3ccc(OC)c(C)c3)CC2)cc1C,i
CCC(C)Cn1c(CCO)nc2ccccc21 (centres undefined),i
Cc1nc(NCCNC(=O)c2ccc(Oc3ncccn3)cc2)cc(-n2cccc2)n1,i
O=c1c([N+](=O)[O-])c(NCCO)c2ccccc2n1-c1ccccc1,i
Cc1noc(C)c1S(=O)(=O)NCCn1ncccc1=O,i
Cc1cc(NC(=O)COc2cccc3c2OC(C)(C)C3)sn1,i
COC(CNC(=O)c1ccc(-n2cccn2)nn1)OC,i
CC1CCN(CC(O)COC(C)(C)C)CC1 (centres undefined),i
Cc1cc(SCC(=O)Nc2ccc([N+](=O)[O-])cc2)n2ncc(-c3ccccc3)c2n1,i
Cc1cc(C)cc(-n2cc(C(=O)N3CCC(NC(=O)c4ccc5c(c4)OCO5)CC3)nn2)c1,i
Cn1ccnc1SCC1CCN(C(=O)CCSc2ccccc2)CC1,i
O=C(Nc1cc2c3c(c1)CCC(=O)N3CCC2)c1ccc2c(c1)OCO2,i
CC(O)(CCc1ccccc1)CNC(=O)C(=O)Nc1cccc(C(F)(F)F)c1 (centres undefined),i
Cc1ccc(-c2cc3c(SCC(=O)N4CCOCC4)nccn3n2)cc1C,i
O=C(NCC1CCN(C(=O)c2cc3ccccc3o2)CC1)C(=O)NCC1CCCO1 (centres undefined),i
O=C(COc1ccccc1F)N1CCN(S(=O)(=O)C2CC2)CC1,i
Cc1nc2ccccn2c1C(=O)NC(C)Cc1ccco1 (centres undefined),i
Cn1c(/C=C(\O)c2ccc(OC(=O)C(C)(C)C)cc2O)nc2ccccc21,i
Cc1ccc(N2CC(c3nc4ccccc4n3Cc3ccccc3C)CC2=O)cc1 (centres undefined),i

# Carrying on:
SMILES,GIRK2 act
COc1cccc(NC(=O)Nc2nnc(-c3ccccc3Cl)o2)c1,i
COc1ccc(CCNC(=O)c2nnn(-c3ccc(Br)cc3)n2)cc1,i
O=C(c1cc2n(n1)CCCO2)N1CC(O)C1,i
Cc1ccc(C)c(S(=O)(=O)NCc2ccc(C(=O)O)cc2)c1,i
O=C1C(=O)N(c2nccs2)C(c2ccc(F)cc2)C1=C(O)c1ccc(Cl)cc1 (centres undefined),i
CCOC(=O)N1CCN(C2CC(=O)N(c3ccccc3C)C2=O)CC1 (centres undefined),i
CCOc1ccc(N(C)S(=O)(=O)c2ccsc2C(=O)Nc2ccc(F)c(C)c2)cc1,i
CC(C)(C)c1ccc(OCC(=O)NCC2(c3cccs3)CCOCC2)cc1,i
O=C(CN1CCN(Cc2nc(-c3ccco3)cs2)CC1)N1CCOCC1,i
COc1ccc(C2NC(=O)N(C)C(C)=C2C(=O)OCCOc2ccccc2)cc1 (centres undefined),i
COc1ncc(NC(=O)C(c2ccccc2)c2ccccc2)cn1,i
Cn1c(=O)c2c(nc3n2CCN3CC(=O)C(C)(C)C)n(C)c1=O,i
O=C(CSc1cc(-c2ccccc2)ncn1)NCc1ccccc1Cl,i
O=S(=O)(c1ccc(Br)s1)N(Cc1ccsc1)Cc1ccco1,i
CC(C)(Oc1ccc(Cl)cc1)C(=O)Nc1cnc(N2CCOCC2)nc1,i
CCOC(=O)Cn1c(=O)c2c(nc3n(C4CCCCC4)c(C)c(C)n23)n(C)c1=O,i
O=C1CC2(CCCC2)CC(=O)N1CCNCC1COc2ccccc2O1 (centres undefined),i
CCOc1cccc2sc(N3CCN(S(C)(=O)=O)CC3)nc12,i
O=C(CCSc1ccccc1)N1CCC(CSc2ccccn2)CC1,i
Cc1cc(CN2CCC(CNC(=O)c3ccc(S(=O)(=O)N(C)C)cc3)CC2)c(C)o1,i
COc1ccc(CC(C)(O)CNC(=O)c2ccc3c(c2)OCO3)cc1 (centres undefined),i
Cc1nnc2c(SCC(=O)Nc3ccc(Cl)cc3C(F)(F)F)nc3ccccc3n12,i
Cn1cc(C2=C(c3cn(C)c4ccccc34)C(=O)NC2=O)c2ccccc21,i
CC(C)(C)c1ccc(NC(=O)NCC#CCN2CCOCC2)cc1,i
CN(C)S(=O)(=O)c1ccc(C(=O)OC2CN(c3nc4ccc(F)cc4s3)C2)cc1,i
Cn1cc(C(=O)NCCC2=CCCCC2)nn1,i
COc1ccc(Nc2c(C(=O)N3CCCC3)cnc3nc(C)ccc23)c(OC)c1,i
CC(C)c1nnc(SCC(=O)Nc2ccc3c(c2)OCCO3)c2c1cnn2-c1ccc(F)cc1,i
O=C(NCCO[N+](=O)[O-])c1cccnc1,i
Cc1nnc(SCC(=O)c2ccc(C(C)(C)C)cc2)s1,i
O=c1cccnn1CCNS(=O)(=O)c1ccc(F)cc1F,i
CC1(CNC(=O)c2cccs2)C2CC3CC(C2)CC1C3 (centres undefined),i
CCOc1ccc(N2C=C(C#N)S(=O)(=O)c3ccc(F)cc32)cc1,i
CCOC(=O)CSc1nc2c(c(=O)n(C)c(=O)n2C)n1CC(O)COc1ccc(OC)cc1 (centres undefined),i
Cc1ccccc1NC(=O)c1ccc(-n2ccnc2C)nn1,i
COc1ccc(-c2coc3cc(OCCN4CCN(c5ccccc5)CC4)ccc3c2=O)cc1OC,i

# A run of entries of the results above:
SMILES,GIRK2 act
O=C1CC2(CCCC2)CC(=O)N1CCNCC1COc2ccccc2O1 (centres undefined),i
CCOc1cccc2sc(N3CCN(S(C)(=O)=O)CC3)nc12,i
O=C(CCSc1ccccc1)N1CCC(CSc2ccccn2)CC1,i
Cc1cc(CN2CCC(CNC(=O)c3ccc(S(=O)(=O)N(C)C)cc3)CC2)c(C)o1,i
COc1ccc(CC(C)(O)CNC(=O)c2ccc3c(c2)OCO3)cc1 (centres undefined),i
Cc1nnc2c(SCC(=O)Nc3ccc(Cl)cc3C(F)(F)F)nc3ccccc3n12,i
Cn1cc(C2=C(c3cn(C)c4ccccc34)C(=O)NC2=O)c2ccccc21,i
CC(C)(C)c1ccc(NC(=O)NCC#CCN2CCOCC2)cc1,i
CN(C)S(=O)(=O)c1ccc(C(=O)OC2CN(c3nc4ccc(F)cc4s3)C2)cc1,i
Cn1cc(C(=O)NCCC2=CCCCC2)nn1,i
COc1ccc(Nc2c(C(=O)N3CCCC3)cnc3nc(C)ccc23)c(OC)c1,i
CC(C)c1nnc(SCC(=O)Nc2ccc3c(c2)OCCO3)c2c1cnn2-c1ccc(F)cc1,i
O=C(NCCO[N+](=O)[O-])c1cccnc1,i
Cc1nnc(SCC(=O)c2ccc(C(C)(C)C)cc2)s1,i
O=c1cccnn1CCNS(=O)(=O)c1ccc(F)cc1F,i
CC1(CNC(=O)c2cccs2)C2CC3CC(C2)CC1C3 (centres undefined),i
CCOc1ccc(N2C=C(C#N)S(=O)(=O)c3ccc(F)cc32)cc1,i

# (further entries)
SMILES,GIRK2 act
CNC(=O)C(=O)Nc1ccc(N2CCCS2(=O)=O)cc1,i
Cc1cc(=O)[nH]c(-n2nc(-c3ccccc3)cc2NC(=O)Nc2ccc3c(c2)OCO3)n1,i
Cc1cc(=O)n(CC(=O)Nc2ccc3c(c2)OCO3)c(N2CCOCC2)n1,i
CC(C)(C)c1ccc(S(=O)(=O)NCC(=O)N2CCCCCC2)cc1,i
Cn1cc(C2=C(Nc3ccccc3)C(=O)NC2=O)c2ccccc21,i
O=C(NCc1ccc(C(F)(F)F)cc1)c1snc(-c2ccccn2)c1NC(=O)C1CC1,i
O=C(/C=C/c1ccccc1Cl)N1CCC(Oc2cnccn2)CC1,i
O=C(CSc1ncccn1)Nc1ncc(Cc2ccc(Cl)c(C(F)(F)F)c2)s1,i
Cc1c(-c2ccc(Br)cc2)c(=O)oc2ccc(O)cc12,i
O=C(NCC1(c2cccs2)CCOCC1)c1ccc(Cl)cc1,i
Cc1nc2ccccn2c1C(=O)N(Cc1cccs1)Cc1cccn1C,i
O=C1/C(=C/c2cc[n+](Cc3ccccc3)cc2)Oc2cc(O)ccc21,i
O=C1/C(=C/c2ccncc2)Oc2cc(OS(=O)(=O)c3ccc(Cl)cc3)ccc21,i
O=C(N1CCN(CCn2cccn2)CC1)C1(c2ccc(Cl)cc2)CCCC1,i
Cc1cccc(Cn2c(CCO)nc3ccccc32)c1,i
COc1ccc(CCNC(=O)NC2CC(=O)N(C3CC3)C2)cc1 (centres undefined),i
O=C(CN1CCN(c2ccccc2F)C1=O)NCCc1cccs1,i
COc1ccccc1Oc1cnc(N)nc1-c1ccc(OCc2ccc(C)cc2)cc1O,i
COc1ccc(N2CC(c3nc(-c4cc(OC)c(OC)c(OC)c4)no3)CC2=O)cc1 (centres undefined),i
O=C(CCl)Oc1ccc2c(c1)O/C(=C\c1ccccc1)C2=O,i
Nc1ccc2sc(Cl)nc2c1,i
O=S(=O)(c1ccc(C(F)(F)F)cc1)N1CCC(CSc2ccccn2)CC1,i
COc1ccc(S(=O)(=O)Oc2ccc3c(c2)O/C(=C\c2cc(OC)c(OC)c(OC)c2)C3=O)cc1,i
Cc1nc(NC(=O)C2(c3cc(-c4ccco4)on3)CC2)sc1C(=O)N(C)C,i

# 2 records picked at random from the list so far:
SMILES,GIRK2 act
COc1ccc(S(=O)(=O)Oc2ccc3c(c2)O/C(=C\c2cc(OC)c(OC)c(OC)c2)C3=O)cc1,i
COc1ccc(CCNC(=O)NC2CC(=O)N(C3CC3)C2)cc1 (centres undefined),i

# Next results follow:
SMILES,GIRK2 act
COc1cc(/C=C2\Oc3cc(OCC(C)=O)ccc3C2=O)cc(OC)c1OC,i
O=C(c1cc2cccnc2n(Cc2ccccc2F)c1=O)N1CCCCC1,i
O=S(=O)(NCC(O)c1ccc2c(c1)CCO2)c1ccc(Br)s1 (centres undefined),i
Cc1c(Cl)cccc1S(=O)(=O)NCc1cc(C2CC2)n(C)n1,i
COc1ccccc1-n1ncc2c(C(C)C)nnc(SC)c21,i
COc1ccc(N2CC(C)Cn3c2nc2c3c(=O)n(CC(N)=O)c(=O)n2C)cc1 (centres undefined),i
O=C(Nc1ccc(SCCCC(=O)N2CCN(c3ccccc3)CC2)nn1)C1CC1,i
COC(=O)c1ccc(Oc2c(C)oc3c4c(ccc3c2=O)OCN(Cc2ccccn2)C4)cc1,i
Nc1nc2c(ncn2COCCO)c(=O)[nH]1,i
O=C(Nc1ccccc1NC(=O)C1CCC1)c1ccccc1F,i
COc1ccc(CCNC(=O)N2C3CCC2COC3)cc1,i

# A portion of the library; count on the stated rates, not on these rows.
